STK33 kinase inh: blocks human STK33 kinase activity; Q9BYT3; purified STK33, MBP phosphorylation, ADP-Glo luminescence; inhibition, % at 10 µM; hit rate 0.073% among 320,000; AID 2661;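 active = inhibition at or above 25%, using the most active replicate where run in duplicate; inactive = inhibition below 25%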
Target sequence (Q9BYT3 whole entry, looked up): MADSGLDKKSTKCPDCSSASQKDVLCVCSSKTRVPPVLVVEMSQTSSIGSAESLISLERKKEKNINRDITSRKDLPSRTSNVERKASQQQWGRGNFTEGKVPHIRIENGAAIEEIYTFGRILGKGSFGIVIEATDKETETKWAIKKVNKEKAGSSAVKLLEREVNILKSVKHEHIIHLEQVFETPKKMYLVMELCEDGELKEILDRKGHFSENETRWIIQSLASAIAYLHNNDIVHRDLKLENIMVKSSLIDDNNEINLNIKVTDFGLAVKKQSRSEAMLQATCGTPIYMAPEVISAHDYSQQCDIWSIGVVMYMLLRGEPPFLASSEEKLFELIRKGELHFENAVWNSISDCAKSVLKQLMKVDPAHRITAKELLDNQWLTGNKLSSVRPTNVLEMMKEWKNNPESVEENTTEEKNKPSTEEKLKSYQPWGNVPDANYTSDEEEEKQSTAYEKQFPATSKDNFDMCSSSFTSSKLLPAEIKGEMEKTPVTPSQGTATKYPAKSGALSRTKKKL
The depositor's hits bear a star.

STK33 kinase inh,SMILES
4.5,Cc1ccc(-c2nnc(N3CCOCC3)c3ccccc23)cc1S(N)(=O)=O
1.2,O=C(COc1ccccc1)NNC(=S)NC(=O)c1ccccc1
0.1,COc1cc(C(=O)NCC(c2ccco2)N2CCCC2)ccc1OCc1c(C)noc1C (configuration not stated)
-1.2,CCC(C)c1ccc(NC(=S)N2CCCC2)cc1 (configuration not stated)
0.0,CC(C)n1c(COc2ccccc2)nc2ccccc21
-1.2,CC1CCCC(C)N1Cc1cn2ccccc2n1 (configuration not stated)
0.7,Cc1cc(C)nc(SCC(=O)OCC(=O)N(C)c2c(N)n(Cc3ccccc3)c(=O)[nH]c2=O)n1
0.2,O=C(Nc1ccc(C(=O)N2CCCC2)cc1)c1ccc2c(c1)OCO2
-2.4,CCCCOc1ccccc1C(=O)NCC(=O)O
-1.1,CCCOc1ccc(-c2nc(-c3ccc([N+](=O)[O-])cc3)cs2)cc1
-3.7,O=S(=O)(c1ccccc1)N1N=C(c2ccccc2)CC1c1ccccc1F (configuration not stated)
-0.4,O=C(Nc1nccs1)c1ccccc1N=Cc1ccccc1
-0.1,CN(C)C(=O)c1ccc2c(c1[N+](=O)[O-])C(=O)c1ccccc1C2=O
-1.5,Cc1ccnc(SCC(=O)N2CCc3ccccc3C2)n1
-1.0,COc1ccc(C(=O)NCc2nnc(SC)n2C2CCCCC2)cc1

More structures:
STK33 kinase inh,SMILES
-0.5,COc1ccccc1CNC(=O)CNC(=O)c1cn(-c2ccccc2OC)c(=O)c2ccccc12
-0.6,O=C(CN1CCCc2ccccc21)NCc1ccccc1Cl
-0.9,Cc1cc2c(c(SCC(=O)NCc3ccccc3Cl)n1)C(=O)OC2
-1.7,CC12CCC(C(=O)Nc3ccc(SC(F)F)cc3)(CC1=O)C2(C)C (configuration not stated)
0.0,CC1(C)c2[nH]c3ccccc3c2C[C@H]2C(=O)N(Cc3ccc(F)cc3)C(=O)N21
-0.6,CN(C)S(=O)(=O)Oc1ccc(Cl)cc1C(=O)Nc1ccc(F)cc1F
-0.8,Cc1ccc(-c2csc(NC(=O)C3CC=CCC3C(=O)O)c2C(=O)OC(C)C)cc1 (configuration not stated)
-1.7,CCOC(=O)c1sc2nc(N3CCOCC3)c3c(c2c1N)CCCC3
-0.2,CCOc1ccccc1OCC(=O)OCc1csc(CC(=O)Nc2ccccc2C)n1
-0.6,Cc1cc(NC(=O)CSCC(=O)Nc2ccccc2Oc2ccccc2)no1
-1.4,COc1ccc(N2C(=O)CC(Nc3ccc(N4CCOCC4)cc3)C2=O)c(OC)c1 (configuration not stated)
2.3,COc1cc2c(cc1OC)C(c1ccc(C)o1)CC(=O)N2 (configuration not stated)
-0.9,COc1cccc(CCN2C(=O)C(=O)N([C@@H](CNCc3ccccc3)Cc3ccccc3F)C[C@@H]2C(C)(C)C)c1
-0.5,Cc1cc2nc(/C=C/c3nc4cc(C)c(C)cc4[nH]3)[nH]c2cc1C
0.1,CCOC(=O)C1=C(C)NC(=O)NC1c1ccc([N+](=O)[O-])o1 (configuration not stated)

The listing continues:
STK33 kinase inh,SMILES
-1.0,COc1c(C)cc(C(=O)C2CCCN(C(=O)Cn3ccc(C)n3)C2)cc1C (configuration not stated)
-1.0,CCOC(=O)CSc1nnc(CNC(=O)c2cccc(C)c2)n1C
6.7,CCOC(=O)c1[nH]ncc1CN1CCN(Cc2ccc(C)cc2)C(CCO)C1 (configuration not stated)
-1.7,CC(C)(C)c1cc(C(C)(C)C)cc(S(=O)(=O)CCc2ccccn2)c1
0.5,CCN1C(=O)/C(=C/c2ccc(C)s2)SC1=Nc1ccc(OC)cc1
-0.7,CCOc1ccc2c(C)c(C)c(=O)oc2c1OCC
0.1,COc1ccccc1COC(=O)N/C=C/c1ccco1
-0.9,Cc1nn(C)c(Cl)c1/C=N/OC(=O)c1ccc(F)cc1
2.2,Brc1ccsc1-c1csc(-c2ccncc2)n1
-1.3,COc1ccc(N2C(=O)c3ccccc3NC2c2ccc(NC(C)=O)cc2)c(OC)c1 (configuration not stated)
-0.2,CN(c1cccc(NC(=O)c2ccccc2N(C)S(=O)(=O)c2ccccc2)c1)S(C)(=O)=O
-0.6,CNc1nc(C)c(C(=O)OCC(=O)OC)s1
2.8,COc1nc(-c2ccccc2)c2cc(Br)ccc2n1
-3.3,Cc1ccc(N/C=C/c2onc(C)c2[N+](=O)[O-])cc1
0.3,COc1ccccc1CCNC(=O)C(=O)NCC1OCCN1S(=O)(=O)c1ccc(OC)c(OC)c1 (configuration not stated)

Looked up above.
CCOC(=O)CSc1nnc(CNC(=O)c2cccc(C)c2)n1C | STK33 kinase inh = -1.0
CC(C)(C)c1cc(C(C)(C)C)cc(S(=O)(=O)CCc2ccccn2)c1 | STK33 kinase inh = -1.7

Next section:
STK33 kinase inh,SMILES
-1.0,COc1c(NC(C)=O)c2ccccc2c2ccccc12
0.3,CC1CN(C(=O)CCNC(=O)c2ccc(Br)cc2)CC(C)O1 (configuration not stated)
-1.9,COc1ccc(/C=C2/SC(=O)N(CC(=O)NCCC(C)C)C2=O)cc1OC
0.5,CCc1nnc2n1N=C(c1ccccc1)CS2
3.1,CC1=C(C(=O)OCC2CCCO2)C(c2ccccc2)C2=C(CCCC2=O)N1 (configuration not stated)
-0.4,Cc1ccc(-n2c(-c3cccs3)nc3nc4ccccc4nc32)cc1
3.5,O=C(Nc1nc(-c2ccco2)cs1)c1ccccc1
-0.2,O=C(CSc1ccccn1)Nc1ccc(Br)cn1
-0.8,Cc1nn(C)c(C)c1S(=O)(=O)NCCc1ccc(Cl)cc1
-0.2,CC(C)(C)C(=O)Nc1cc2c3c(c1)CCC(=O)N3CCC2
2.4,COc1ccccc1N(C(=O)c1snc(C(N)=O)c1N)C(C(=O)NC1CCCC1)c1ccc(N(C)C)cc1 (configuration not stated)
0.4,CC(=O)NNc1[nH]c2c(c(=O)c1[N+](=O)[O-])c(=O)n(C)c(=O)n2C
0.0,O=C(O)/C=C/c1ccc(-c2cccc(C(F)(F)F)c2)o1
-1.9,O=C(/C=C/Nc1ccccc1)c1ccc(Oc2ncccn2)cc1
3.8,O=C(Nc1cccc(-n2cnnn2)c1)c1ccccc1Br

In the list so far, seven contain fluorine.
STK33 kinase inh,SMILES
-3.7,O=S(=O)(c1ccccc1)N1N=C(c2ccccc2)CC1c1ccccc1F (configuration not stated)
-1.7,CC12CCC(C(=O)Nc3ccc(SC(F)F)cc3)(CC1=O)C2(C)C (configuration not stated)
0.0,CC1(C)c2[nH]c3ccccc3c2C[C@H]2C(=O)N(Cc3ccc(F)cc3)C(=O)N21
-0.6,CN(C)S(=O)(=O)Oc1ccc(Cl)cc1C(=O)Nc1ccc(F)cc1F
-0.9,COc1cccc(CCN2C(=O)C(=O)N([C@@H](CNCc3ccccc3)Cc3ccccc3F)C[C@@H]2C(C)(C)C)c1
-0.9,Cc1nn(C)c(Cl)c1/C=N/OC(=O)c1ccc(F)cc1
0.0,O=C(O)/C=C/c1ccc(-c2cccc(C(F)(F)F)c2)o1

Other records follow.
STK33 kinase inh,SMILES
-1.2,COc1cc(OC)cc(-c2n[nH]c(=S)n2-c2ccc3c(c2)OCO3)c1
-1.4,CCOC(=O)CS(=O)(=O)c1ccc2ccccc2c1
2.3,O=C(O)c1cc(-c2ccc3c(c2)OCO3)nc2ccc(Cl)cc12
-1.8,O=C(NCC1COCCO1)c1cc(COc2c(F)cccc2F)on1 (configuration not stated)
-0.3,O=C(Nc1cc(C(F)(F)F)ccc1-n1cncn1)C1CC1
-0.4,C=CCN(c1ccccc1)S(=O)(=O)c1cccc(C(=O)Nc2nnc(SCC)s2)c1
-1.5,O=C(NCCCn1ccnc1)c1ccc2nccnc2c1
-3.0,CN1CC2CCCC3(C1)C(=O)NC1(CCCCC1)N=C23 (configuration not stated)
-0.1,CC(NC(=S)NC1CCCCC1)C(c1cccs1)N1CCOCC1 (configuration not stated)
-0.2,COc1cc(OC)cc(C(=O)N(CCCN2C(=O)c3cccc4cccc(c34)C2=O)c2cccc(OC)c2)c1
0.8,COc1ccccc1Nc1ccc(C(=O)NC2CCCCC2)cn1
-0.5,O=C(CSc1nc2ccccc2c(=O)n1CC1CCCO1)Nc1ccccc1 (configuration not stated)
-1.0,CC12CCC(=O)N1C(C(=O)NNC(=O)COc1ccc(Br)cc1)CS2 (configuration not stated)
-0.1,c1ccc(CNCc2ccc3c(c2)OCO3)nc1
-1.5,COc1ccc(N2CC(C(=O)Nc3ccccc3C(=O)NC3CC3)CC2=O)cc1 (configuration not stated)

Continued (three carried over from the part before).
STK33 kinase inh,SMILES
-1.0,CC12CCC(=O)N1C(C(=O)NNC(=O)COc1ccc(Br)cc1)CS2 (configuration not stated)
-0.1,c1ccc(CNCc2ccc3c(c2)OCO3)nc1
-1.5,COc1ccc(N2CC(C(=O)Nc3ccccc3C(=O)NC3CC3)CC2=O)cc1 (configuration not stated)
0.8,CC(=O)OCC(=O)Nc1ccc(SC(F)F)cc1
1.8,CCOC(=O)CSc1ccc(C(=O)Nc2ccc(Cl)cc2)cn1
-0.6,O=C(CSc1nnc(CNC(=O)c2ccc(F)cc2)o1)NCc1ccc(F)cc1
-2.0,CCCCCCc1nc2ccccc2c(=O)n1N
-1.7,CCCCCC(O)CCc1n[nH]c(=S)n1-c1ccccc1 (configuration not stated)
-1.6,COc1ccccc1OCCNC1CCCC1
0.5,Cc1cccc(-c2cc3nc(C)cc(C)n3n2)c1
0.6,COc1cc(NC(=O)CCCNC(=O)c2ccc(Cl)cc2)cc(OC)c1OC
-1.4,O=C(NCC(=O)N1CCN(C(=O)c2ccco2)CC1)c1ccc(Cl)cc1
-0.1,CCN(CC)c1ccc(/C=N/NC(=O)Cc2nnc(NC(=O)Nc3ccccc3)s2)cc1
-0.1,COc1cccc(-c2cc(N3C(=O)Nc4ccccc4N3O)n[nH]2)c1
1.8,Cc1ccc(-n2c(C)c3c(C)nnc(C)c3c2C)cc1C
0.5,Cc1ccc(OCC(=O)NCc2cccs2)c([N+](=O)[O-])n1
-1.0,CCOC(=O)Cn1c(=O)c(-c2ccccc2N)nc2ccccc21
-0.3,Fc1ccccc1COc1ccc(Br)cc1CNCc1cccnc1

Later entries.
STK33 kinase inh,SMILES
-2.7,CCn1c(SCC(=O)Nc2cc(OC)c(OC)c(OC)c2)nnc1-c1cccs1
13,Cc1ccccc1-c1nc2sc3c(c2c(=O)n1N)CCCC3
0.1,O=C(NNC(=S)NCc1ccccc1)c1ccc2c(c1)OCO2
-2.3,CCOC(=O)c1cnc2nc(C(F)(F)F)[nH]n2c1=O
0.1,COc1cc(NC(=O)c2ccc(NC3=NC4CS(=O)(=O)CC4S3)cc2)cc(OC)c1OC (configuration not stated)
0.6,CC(C)C(NC(=O)C1CCCCC1)C(=O)NC1CCCC(C)C1C (configuration not stated)
-1.7,CCCNC(=O)CN1C(=O)NC(Cc2c[nH]c3ccccc23)C1=O (configuration not stated)
1.6,Cc1ccc(-n2nc3c(=O)n(CCCC(=O)NCc4ccc(F)cc4)nc(C)c3c2C)cc1
-1.8,CCOc1cc(CNCc2ccccn2)cc(Cl)c1OC
1.0,COc1ccc(N(C)S(=O)(=O)c2cccc(C(=O)NC3CCCC(C)C3C)c2)cc1 (configuration not stated)
-1.1,COc1ccc(/C=C/c2c([N+](=O)[O-])c(=O)n(C)c(=O)n2C)cc1OC
-0.8,CCSc1nnc(-c2ccc(S(=O)(=O)N3CCOCC3)cc2)n1CC1CCCO1 (configuration not stated)
-0.9,CCOc1ccc(OCCN(C)Cc2ccccc2)cc1
-5.1,CSc1ccccc1NC(=O)c1ccc(CN2CCOCC2)cc1
-1.0,O=C(Nc1cccc(C(=O)N2CCCCCC2)c1)c1ccco1

Entries above that contain a tert-butyl group:
STK33 kinase inh,SMILES
-0.9,COc1cccc(CCN2C(=O)C(=O)N([C@@H](CNCc3ccccc3)Cc3ccccc3F)C[C@@H]2C(C)(C)C)c1
-1.7,CC(C)(C)c1cc(C(C)(C)C)cc(S(=O)(=O)CCc2ccccn2)c1
-0.2,CC(C)(C)C(=O)Nc1cc2c3c(c1)CCC(=O)N3CCC2

Next section:
STK33 kinase inh,SMILES
-0.8,Cn1cccc1CC(=O)N/N=C/c1ccc(Cl)cc1
-1.8,O=C(Oc1ccc(Cl)cc1N1C(=O)CCC1=O)c1ccco1
3.4,CCOC(=O)c1sc(N)c(C(N)=O)c1C
-0.7,COCC(=O)N1CCC(Oc2ccc(C(=O)N3CCCCCCC3)cc2)CC1
0.6,CC(=O)Nc1ccc(NC(=O)Cn2c(-c3ccc(F)cc3)cnc2SCC(=O)Nc2c(C)cccc2C)cc1
-0.3,CC(C)CNC(CC(=O)O)c1ccccc1 (configuration not stated)
-0.7,Cc1c(C(=O)Nc2c(N)nc(SCC(=O)NCC3CCCO3)[nH]c2=O)cccc1[N+](=O)[O-] (configuration not stated)
0.0,Cc1nnc(SCC(=O)NC(C)(C)C)n1NCc1cccc(Br)c1
-2.7,Cc1nc(-c2ccc(Cl)cc2)sc1C1(C)CC(c2ccc(C#N)cc2)=NO1 (configuration not stated)
-2.8,O=C(O)CCc1ccc(-c2ccc(Br)cc2)n1NC(=O)c1ccc([N+](=O)[O-])cc1
-1.4,O=C(OCC(=O)N1CCN(C(=O)c2ccco2)CC1)c1ccccc1OCc1ccc(Cl)cc1
0.2,Cc1nc(CC(=O)N/N=C/c2ccc(OCC(=O)O)cc2)cs1
-1.2,CCOc1ccc(CCNC(=O)c2ccc(CS(=O)Cc3cccc(Cl)c3)o2)cc1 (configuration not stated)
0.4,CCN(Cc1ccncc1)C(=O)c1cccc(S(=O)(=O)N2CCOCC2)c1
-1.1,COc1cccc(N(C(=O)Cc2cccs2)C(C(=O)NC2CCCC2)c2ccncc2)c1 (configuration not stated)

Later entries:
STK33 kinase inh,SMILES
-0.1,Cc1nnc(SC(C)C(=O)Nc2ccc(S(=O)(=O)N3CCCCCC3)cc2)s1 (configuration not stated)
-1.0,CC(c1ccccc1)n1cnc2ccccc21 (configuration not stated)
-0.8,CC(C)Oc1cccc(C(=O)Nc2ccc(CN3CCOCC3)cc2)c1
-1.9,CC1CCN(c2ccccc2NC(=S)NC(=O)c2ccco2)CC1
0.9,N#C/C(=C\c1ccc(Cl)cc1)c1nc2ccccc2o1
-0.5,CCN(CC)N=Nc1cccc(NC(C)=O)c1
-0.6,CCCOC(=O)c1cc(-c2ccc(C=O)o2)ccc1Cl

Screens from PubChem.

Some of the compounds tested, and most or all hits are left out here.
